Compound activity (PubChem BioAssay)
TRPML1 blocker: blocks the human TRPML1 channel; Q9GZU1; TRPML1-inducible cells, Ca2+ dye fluorescence, FDSS; stronger effect = lower value; inhibition of EC80 agonist-evoked calcium signal; activity change, negative = inhibition, % (concentration not given with the values); 390,000 compounds, 0.02% hits; AID 624415; in the data active means activity change below about -50%; inconclusive means about -30% to -50%; inactive means above about -30%;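 further: stimulus is agonist 54-4 at its EC80 concentration; on the % scale 0 is the no-effect control and ±100 the full control effect; the text of the record puts the active cut at -80%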
Target sequence (Q9GZU1 whole entry, looked up): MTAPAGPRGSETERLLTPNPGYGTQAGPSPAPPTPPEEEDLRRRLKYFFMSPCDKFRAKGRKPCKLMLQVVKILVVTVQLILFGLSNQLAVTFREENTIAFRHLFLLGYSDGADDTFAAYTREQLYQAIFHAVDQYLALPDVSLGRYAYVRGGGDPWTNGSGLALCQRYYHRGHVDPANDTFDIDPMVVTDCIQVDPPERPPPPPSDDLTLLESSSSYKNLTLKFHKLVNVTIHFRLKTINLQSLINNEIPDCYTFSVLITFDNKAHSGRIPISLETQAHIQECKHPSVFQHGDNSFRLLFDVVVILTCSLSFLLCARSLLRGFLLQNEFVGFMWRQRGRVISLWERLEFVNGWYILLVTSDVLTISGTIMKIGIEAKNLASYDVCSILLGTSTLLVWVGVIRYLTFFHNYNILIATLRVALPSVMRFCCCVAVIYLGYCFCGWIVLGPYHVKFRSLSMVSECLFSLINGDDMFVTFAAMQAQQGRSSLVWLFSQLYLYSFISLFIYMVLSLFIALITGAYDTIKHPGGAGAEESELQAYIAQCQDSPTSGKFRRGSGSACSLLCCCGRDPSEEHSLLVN
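TRPML1-DL cells, Tet-induced overnight (~16 h, 37 °C) at 1,500 cells/well, were loaded with Ca8 no-wash dye plus quencher for 45-90 min at room temperature. Compounds were pinned during FDSS kinetic reading; agonist 54-4 at EC80 (4 uM final) then added.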
TRPML1 ag: agonists of human TRPML1 channel; 410,000 compounds, 0.12% hits; TRPML1-expressing cells, Ca2+ dye fluorescence, FDSS; host cell line not named in the record; reference of the full effect not given here; activation, % (concentration not given with the values); Q9GZU1; AID 624414; in the data active = activation above about 50%; inconclusive = about 30% to 50%; inactive = below about 30%; further: 0% is about no effect; the text of the record puts the active cut at 80%
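Agonist activity was taken from a 110 s kinetic Ca2+ dye read on the FDSS after pinning compounds onto TRPML1-DL cells. The cells were seeded at 1,500/well with Tet inducer, incubated about 16 h, then dye-loaded at room temperature.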
gsp antagonist: gsp mutant antagonism. gsp-mutant cells, cAMP HTRF, 30 min; control for the full effect not named in the record. Potency, µM (highest dose often 76.9 µM), for inactives: at the top dose activity change, negative = inhibition, usual class: inhibitors. 340,000 compounds, 0.4% hits. AID 624288; active = falling curve of any shape with a large fitted effect; inconclusive = falling curve, mostly with a smaller effect; inactive = flat or rising curve; cell line not stated here;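 further: intracellular cAMP measured with PDE inhibitor Ro 20-1724 present during compound exposure; potency means the concentration at half of the fitted maximal effect; on the % scale 0 is the no-effect control and ±100 the full control effect; nearly all actives have a fitted effect of over 65% in size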
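HTRF cAMP measurement after 30 min RT detection following 30 min, 37C compound treatment alongside […] (added as 300 uM solution) in G418-selected cells seeded at 2000/well and grown 16–24 h.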
ClpP mod: qHTS Assay for Activators of ClpP; ATP-dependent Clp protease proteolytic subunit (Bacillus subtilis (strain 168)), P80244; purified B. subtilis ClpP, FRET peptide cleavage, 20 min; Potency, µM (titrated, usually from 57.5 µM), inactives show top-dose activity change, negative = active; 340,000 compounds, 1.9% hits; active = well fitted falling curve with a large enough effect; inconclusive = small, poorly fitted or top-dose-only effect; inactive = no such curve, though single readings can be large or run the other way; further: potency means the concentration at half of the fitted maximal effect; the source files actives as falling curves though it sought activators and does not explain the sign; nearly all actives have a fitted effect of over 65% in size; many hits overshoot -100%
Target sequence (P80244 whole entry, looked up): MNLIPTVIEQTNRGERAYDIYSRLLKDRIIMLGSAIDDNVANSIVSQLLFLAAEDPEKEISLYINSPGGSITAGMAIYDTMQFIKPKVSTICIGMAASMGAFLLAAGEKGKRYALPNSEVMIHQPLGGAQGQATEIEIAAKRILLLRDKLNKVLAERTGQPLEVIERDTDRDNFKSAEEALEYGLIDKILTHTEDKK
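ClpP 10 microg/mL final, pH 8 Tris/KCl buffer with BSA, glycerol, Tween-20; compound pinned in; FRET-FV substrate; RT 20 min; Ex320/Em430; ΔFRET vs ADEP 5.8 microM, DMSO, no enzyme.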
Menin MLL FP FL: menin-MLL binding inhibition, fluorescein peptide; Fluorescence polarization, fluorescein-MLL peptide displacement from menin; 290,000 tested, under 10 active; FP activity change, % at 61.4 µM; inconclusive = falling polarisation curve, or a change in total fluorescence; inactive = total fluorescence flat and polarisation flat or rising; no compound was filed as active; the % refers to the polarisation; negative = inhibition;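 further: % of control where 0% means no effect; inhibitors lower the polarisation; unlabelled MLL peptide was the positive control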
gsp agonist: gsp mutant agonism; gsp mutant cells, cAMP HTRF, 30 min; control for the full effect not named in the record; Potency, µM (top dose mostly 76.9 µM), inactives show at the highest dose activation (cAMP increase), most hits filed as activators; 340,000 compounds, 0.13% hits; AID 624287; active = well fitted activation curve with a large enough effect; inconclusive = small, poorly fitted or top-dose-only effect, or another doubt; inactive = no such curve, though single readings can be large or run the other way; cell line not stated here;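 further: phosphodiesterase inhibitor Ro 20-1724 added with compounds to block cAMP breakdown; potency means the concentration at half of the fitted maximal effect; nearly all actives have a fitted effect of over 60% in size; about a fifth of the inactives were tested at one dose only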
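Cells in DMEM/10% FBS with G418 were pretreated with compounds in DMSO plus […] (300 uM stock) for 30 min at 37C. cAMP was measured by HTRF (cAMP-d2 plus anti-cAMP antibody-K) after 30 min at room temperature.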
Active calls of the source: *; ? = inconclusive; . = no result given; & = joins results of further samples; [ ] = remark or other dose.

Below each SMILES – TRPML1 blocker	TRPML1 ag	gsp antagonist	ClpP mod	Menin MLL FP FL	gsp agonist
Cc1[nH]c2c(C)cccc2c1CCNC(=O)C1CCCCC1C(=O)OCC(F)(F)F (configuration not stated)
  -7	-0.7	2%	-0.1%	-1.7	-12%[15.4 µM]
CCSc1nnc(NC(=O)CSc2nnc(C)c(=O)n2N)s1
  -4	-0.2	6%	?	-6.3	4%[15.4 µM]
Cc1ccccc1NC(=O)CSc1nccn1C
  -21	1.8	.	-0.2%	.	.
Cc1nn(C(=O)c2ccc(Cl)cc2)c(C)c1S(=O)(=O)N1CCCCCC1
  2	0.2	.	0.1%	.	.
CSc1nc2[nH]ncc2c(=O)[nH]1
  1	1.2	6%	-2.3%	2.7	-18%
Cc1ccc(-n2c(C)nc3c(cnn3-c3ccc(F)cc3)c2=O)cc1C
  73	-0.3	-3%	-0.7%	0.8	0%
O=C(O)CSc1nccc2ccccc12
  -6	-0.7	-2%	.	1.1	-1%[15.4 µM]
CCc1nc2ccc(C(=O)NCCN3CCOCC3)cn2c1N(C=O)Cc1ccc(OC)cc1
  -30	5.9	.	-21%	.	.
C=CCn1c(C)cc(C(=O)CSc2nnc(-c3cccc(S(=O)(=O)N(CC)CC)c3)o2)c1C
  -6	0.6	-14%	-8.0%	0.6	-11%
O=C(COc1coc(CN2CCN(c3ccccc3)CC2)cc1=O)NCC1CCCO1 (configuration not stated)
  0	0.1	12%	-1.7%	.	-13%[15.4 µM]
CCN1CCN(CCNC(=O)c2ccc3nc(-c4cccc(C)c4)c(-c4cccc(C)c4)nc3c2)CC1
  0	-0.5	11%	3.5%	.	28%
CCN(CC)S(=O)(=O)c1ccc2c(c1)nc(CCC(=O)Nc1cccc(C(F)(F)F)c1)n2CC
  -6	2.0	-16%	-1.4%	1.0	14%
CCOc1ccc(CCN2C(=O)C(=O)N([C@@H](Cc3ccccc3)CN3CCC[C@@H]3CN3C(=O)C(=O)NC[C@@H]3Cc3ccc(O)cc3)C[C@@H]2Cc2ccccc2)cc1
  -21	1.5	.	-4.1%	.	.
CCOC(=O)N1CCN(C(=O)CN2C(=O)COc3ccc(C)cc32)CC1
  -6	-1.1	-9%	-3.6%	-0.9	7%
COC(=O)c1sccc1NC(=O)Nc1ccccc1C
  35	-0.1	-2%	1.1%	.	-9%
Cc1ccc(NC(=O)C2CCCN(S(=O)(=O)c3c(C)noc3C)C2)cc1 (configuration not stated)
  16&-10	2.6&-1.6	1%	0.2%&-0.6%	-1.1	24%
O=C(O)c1cccc(Nc2ccc3nonc3c2[N+](=O)[O-])c1
  7	0.5	8%	1.4%	0.5	3%
CCC(=O)OCCNc1cc(Sc2nccn2C)c2nonc2c1[N+](=O)[O-]
  17	3.6	-20%	0.5%	-0.9	-25%
Cc1cc(C)nc(NC2=NCC(=O)N2CCc2c[nH]c3ccccc23)n1
  -5	1.6	-13%	0.2%	-3.2	3%
CC(Cc1ccc(O)c(O)c1)C(C)Cc1ccc(O)c(O)c1 (configuration not stated)
  -4	-0.8	?	0.0%	-3.0&-13	.
COc1ccc(S(=O)(=O)N2CCOCC2)cc1NC(=O)C1CCN(S(=O)(=O)c2ccc(Cl)cc2)CC1
  -2	1.6	1%	-2.0%	.	4%
COc1cccc(C(=O)N2CCN(c3ccc(N4CCOCC4)nn3)CC2)c1
  -5	0.7	-4%	?	.	-9%[15.4 µM]
CN1CCN(c2ccc(S(=O)(=O)N3CCOCC3)cc2NC(=O)COc2ccc(C#N)cc2)CC1
  ?	1.8	-3%	-3.4%	.	0%
COc1ccc(C(=O)N/N=C/c2ccc(OC)c(COc3ccc(F)cc3F)c2)cc1
  16	1.9	-14%	-26%	-0.1	-21%
O=[N+]([O-])c1ccc(COc2ccc(CNc3ccccc3)cc2)cc1
  1	0.1	11%	0.9%	-0.7	-3%
CCn1c(=O)c2ccccc2n(CC(=O)NCCC2=CCCCC2)c1=O
  -18	0.8	-14%	1.1%	8.3	-16%[15.4 µM]
COc1ccc(/C=N/NC(=O)CC(=O)NCc2cccnc2)c(OC)c1
  -7	0.3	6%	-1.1%	1.7	0%[15.4 µM]
Cc1ccc(OCC(=O)N2CC(C)OC(C)C2)c([N+](=O)[O-])n1 (configuration not stated)
  6	-0.7	17%	0.5%	0.8	-1%[15.4 µM]
CCc1cc(-c2n[nH]c(C)c2-c2nc3ccccc3n2C)c(O)cc1O
  4	0.5	7%	.	-2.7	-18%
CCC(C)Sc1cccc(-c2nc3ccc(C)cn3c2NCc2ccccc2)c1 (configuration not stated)
  61	0.3&-0.8	?	4.4%&5.0%	.	.
CC1CN(c2ccc(NC(=S)Nc3ccc(N4CC(C)OC(C)C4)cc3)cc2)CC(C)O1 (configuration not stated)
  12	0.4	-10%	0.9%	0.9	-48%[inhibitor]
O=c1[nH]c(SCCOc2cccc3ccccc23)nc2ccccc12
  -3	2.9	-6%	.	1.5	-4%[15.4 µM]
Cc1ccc(S(=O)(=O)N2CCC(Oc3cccc(C(F)(F)F)c3)CC2)cc1
  -6	1.6	-6%	1.6%	-3.6	-18%
COC(=O)N(C)CCCC1(C)C(=O)N(C)c2ccc(O)cc21 (configuration not stated)
  0	-0.7	4%	1.0%	5.0	-29%
Cc1nc2sc(C(c3ccco3)N3CCC(Cc4ccccc4)CC3)c(O)n2n1 (configuration not stated)
  -2	0.0	-14%	-1.4%	7.9	?
COc1ccc(-n2c(Cn3c(=O)sc4ccccc43)nnc2SCC(=O)N2CCCCC2)cc1
  1	0.3	-11%	-0.6%	3.2	-7%
CCCN(CC(=O)Nc1ccccc1OC)C(=O)CCNC(=O)c1ccccc1OC
  0	1.2	7%	0.0%	.	-2%[15.4 µM]
COc1ccccc1-c1nc2cc(NC(=O)c3ccccc3Cl)ccc2o1
  44	-1.2	.	4.2%	.	.
Cc1nc(S(=O)(=O)NC2CCCCC2)c(C#N)c(C)c1Cl
  15	-1.2	-5%	0.7%	1.8	0%
CCC(CC)C(=O)Nc1nnc2n1CCS2
  -8	0.5	.	1.1%	.	.
Cc1cc(C)cc(NC(=O)Cc2c(C(=O)O)c(C)cn2C)c1
  -13	-0.5	.	0.6%	.	.
O=C(O)c1nn(CCOc2ccc(Br)cc2)c(=O)c2ccccc12
  -24	-0.2	-5%	.	-5.7	-37%[inhibitor]
Cc1ccc(NS(=O)(=O)c2ccc3c(c2)CCCN3C(=O)C2CCC2)c(C)c1
  -16	0.4	.	-0.3%	.	.
Cc1cc(C)c(OCCOCCn2c(-c3ccc(Cl)cc3)nc3ccccc3c2=O)c(C)c1
  -6	-0.8	.	3.3%	.	.
CS(=O)(=O)c1ccc(Cl)c(NC(=O)CSc2n[nH]c(N)n2)c1
  1	-0.8	10%	1.9%	.	-13%
CC(=O)c1nn(-c2cccc(Br)c2)cc1C(=O)c1ccc(C)cc1
  64	1.9	3%	0.4%	-7.5	12%
CC(C)Nc1cc(N2CCN(C3CCCCC3)CC2)c2noc3c2c1C(=O)c1ccccc1-3
  -11	-0.4	.	-1.4%	.	.
COc1ccc2nc(SCC(=O)NC3CCCCC3C)[nH]c2c1 (configuration not stated)
  -5	0.3	11%	1.3%	.	-9%
Cc1nc(S(=O)(=O)Cc2ccccc2)nc2c1CCC2
  -12	1.2	7%	.	0.3	15%
O=C(COc1ccc2oc(-c3ccco3)cc(=O)c2c1)N1CCCCC1
  .	.	-19%	4.0%	1.9	?

Grouped by structure: the compounds so far containing a CF3 group
Below each SMILES – TRPML1 blocker	TRPML1 ag	gsp antagonist	ClpP mod	Menin MLL FP FL	gsp agonist
Cc1[nH]c2c(C)cccc2c1CCNC(=O)C1CCCCC1C(=O)OCC(F)(F)F (configuration not stated)
  -7	-0.7	2%	-0.1%	-1.7	-12%[15.4 µM]
CCN(CC)S(=O)(=O)c1ccc2c(c1)nc(CCC(=O)Nc1cccc(C(F)(F)F)c1)n2CC
  -6	2.0	-16%	-1.4%	1.0	14%
Cc1ccc(S(=O)(=O)N2CCC(Oc3cccc(C(F)(F)F)c3)CC2)cc1
  -6	1.6	-6%	1.6%	-3.6	-18%

Further entries follow:
Below each SMILES – TRPML1 blocker	TRPML1 ag	gsp antagonist	ClpP mod	Menin MLL FP FL	gsp agonist
COC(=O)c1ccc(COC(=O)c2cnccn2)cc1
  1	-0.3	10%	.	0.3	1%[15.4 µM]
CCOc1ccc(NC(=O)/C(C#N)=C/c2cn(CC(=O)O)c3ccccc23)cc1
  -5	-0.7	2%	-0.4%	3.8	15%[15.4 µM]
CN(c1ccc(C(=O)N2CCOCC2)cc1[N+](=O)[O-])C1CCCCC1
  -1	-0.1	-9%	-2.2%	-0.2	8%
Cc1ccccc1N1CC(C(=O)O)CC1=O (configuration not stated)
  -17	0.7	-16%	.	2.2	-23%
Cc1ccc(C)c(Sc2ccc(S(=O)(=O)Nc3ccc(C(=O)O)cc3)cc2)c1
  -8	-0.5	-15%	0.7%	.	-7%
CCc1ccc(S(=O)(=O)Nc2ccc(Cl)cn2)cc1
  -17	0.0	-9%	-4.5%	0.7	-1%
Cc1cccc(NC(=O)c2ccc3nc(CCc4ccccc4)oc3c2)c1C
  43	2.3	.	77%	.	.
CN(C)S(=O)(=O)c1cccc(C(=O)Nc2ccc(N3CCOCC3)cc2)c1
  -5	-0.9	-1%	.	1.4	-1%[15.4 µM]
CN(C1CCCCC1)S(=O)(=O)c1ccc(-c2ccccn2)s1
  39	2.8	0%	.	1.4	10%[15.4 µM]
CCOP(=O)(OCC)C(NC(=O)Nc1ccccc1)C(N)=O (configuration not stated)
  21	-0.4	8%	-1.9%	-0.2	-19%
C=CCn1c(SCC(=O)Nc2ccc(OC)cc2)nc2c([nH]c3ccccc32)c1=O
  31	0.5	11%	-11%	.	6%[15.4 µM]
CCOc1ccc(NC(=O)CSc2nnc(-c3ccccc3Cl)n2Cc2ccco2)cc1
  46	1.0	-17%	18µM*	1.2	12%
Cc1ccc(S(=O)(=O)N2CCN(C)CC2)cc1-c1nnc2c3ccccc3c(C)nn12
  -5	-0.5	19%	-4.2%	-1.5	?
Cc1sc2ncn(CC(=O)N3CCOCC3)c(=O)c2c1-c1ccccc1
  13	-1.1	-4%	-0.1%	1.0	-8%[15.4 µM]
Cc1cccc(C(=O)N2c3ncnn3C3(CCCCC3)[C@@H]3CCCC[C@@H]32)c1
  16	0.6	.	-1.7%	.	.
